Assay outcomes as filed in PubChem.
RVFV N-RNA inh: RVFV nucleocapsid-RNA interaction inhibition; P21700; RVFV N-RNA binding, fluorescence polarization; active compounds read low; % bound, % (concentration not given with the values); 0.1% of 20,000 active; AID 651828;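 active = between 0 and 58% in either replicate with normal brightness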;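 also: 100 nL library stock added to about 12 µL; 100% = protein and probe without compound and 0% = probe alone; numbers are from one replicate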
Target sequence (P21700 whole entry, looked up): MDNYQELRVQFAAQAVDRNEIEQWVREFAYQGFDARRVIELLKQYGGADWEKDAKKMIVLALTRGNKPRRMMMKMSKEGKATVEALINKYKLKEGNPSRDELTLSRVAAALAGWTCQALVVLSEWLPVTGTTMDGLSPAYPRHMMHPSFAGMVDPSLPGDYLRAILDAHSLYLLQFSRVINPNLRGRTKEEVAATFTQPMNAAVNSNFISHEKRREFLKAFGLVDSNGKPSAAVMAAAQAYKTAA
* marks the source's active call; other numbers are inactive results; & = joins results of further samples. Some of the compounds tested. The share of hits here may be higher or lower than overall.

entry | smiles | RVFV N-RNA inh
1 | Cn1c(CSCCOc2ccccc2)n[nH]c1=S | 97.5
2 | CCc1nnsc1C(=O)Nc1ccc(S(=O)(=O)N2CCOCC2)cc1 | 98.8
3 | Cc1cn(CC(=O)c2ccccc2)c2ccccc12 | 96.9
4 | C#Cc1cccc(-n2nnc(-c3ccccc3)c2C)c1 | 94.8
5 | O=c1c2ccccc2[nH]c(=S)n1CC1CCCC1 | 96.2
6 | CCCSc1ccc(N)nc1 | 95.4
7 | O=C1c2nc3cc(-c4ccco4)[nH]n3c(=O)c2CN1C1CCCCC1 | 88.5
8 | CC1=CCC2C(=O)N(C(CC(C)C)C(=O)O)C(=O)C2C1 (stereo not given) | 99.1
9 | Fc1ccc(CSc2ncnc3c2oc2ccccc23)cc1 | 103.4
10 | O=C(CC(Sc1ccccc1)c1ccc2c(c1)OCO2)c1ccco1 (stereo not given) | 99.6
11 | N#C/C(=N\Nc1ccccc1)C(=O)C1CC1 | 100.3
12 | CCCCCC(=O)c1ccc(O)cc1O | 91.7
13 | CCOC(=O)c1nc(NCc2cccnc2)c2ccccc2n1 | 101.7
14 | CC(Oc1ccccc1)C(=O)N1CCN(C(=O)C(C)Oc2ccccc2)CC1 (stereo not given) | 98.8
15 | Cc1ccccc1C(=O)NC(=S)N1CCC(C)CC1 | 89.6
16 | CCn1c(C)cc2c(c1=O)C(C(C)C)C(C#N)=C(N)O2 (stereo not given) | 101.8
17 | O=C(NOC(=O)c1cccs1)c1ccccc1 | 90.3
18 | C/C(=C\C(=O)c1ccccc1)Nc1ccc(N2CCOCC2)cc1 | 98.4
19 | COc1ccc(-c2cc(C(=O)O)c(C)o2)cc1OC | 87.8
20 | COCCCN1C(=O)CC(Nc2ccc(N(C)C)cc2)C1=O (stereo not given) | 101.8
21 | CCOC(=O)Cc1csc(NC(=O)CSc2nccn2C)n1 | 93.3
22 | CC(Oc1ccc(C(C)(C)C)cc1)C(=O)NCC1CCCO1 (stereo not given) | 90.1
23 | CSc1nc(C)c2c(n1)CCCC2 | 94.5
24 | CC(C)(C)NC(=O)CS(=O)(=O)c1ccccc1 | 97.9
25 | CCCc1cc(C(=O)NC2CC2)cs1 | 89.6
26 | CCOC1(C(F)(F)F)NC(=O)N(c2ccc(OC)cc2)C1=O (stereo not given) | 98.7
27 | CCCCNC(=O)Nc1ccn(C)n1 | 94.3
28 | Cc1cc(NC2CCCCC2)nc(-n2nc(C)cc2C)n1 | 99.1
29 | CC1CC(OC(=O)C(O)c2ccccc2)CC(C)(C)C1 (stereo not given) | 101.9
30 | CC(Oc1ccc(Cl)cc1Cl)C(=O)Nc1ccc(Cl)cn1 (stereo not given) | 99.8
31 | CCc1ccc(OC(=O)/C=C/c2ccco2)cc1 | 96.2
32 | CC(C)(C)NC(=O)c1cc2c(s1)CCCCC2 | 105.6
33 | N/C(=N\NS(=O)(=O)c1ccccc1)c1ccccn1 | 106.5
34 | NC(=O)c1ccccc1OCC(=O)NS(=O)(=O)c1ccc(Cl)cc1 | 90.8
35 | CCn1nc(C)cc1/C(N)=N/OC(=O)c1cc(Cl)cc(Cl)c1 | 95.2
36 | O=C1CC(c2cnc[nH]2)C2(CCCCC2)O1 (stereo not given) | 95.0
37 | Cc1ccc(C(=O)COC(=O)CN2C(=O)C3CC=CCC3C2=O)cc1C (stereo not given) | 90.9
38 | CC1(C)NC(=O)N(CN2CCCCC2)C1=O | 96.1
39 | CCCOc1cc(C)c(S(=O)(=O)NCCOC)cc1C | 100.2
40 | COc1ccc(NC(=O)CC(NCc2ccccc2)C(=O)O)cc1 (stereo not given) | 95.6
41 | CC(C)(C)C(=O)Oc1ccc(S(=O)(=O)Nc2ccccc2C(=O)NCC(=O)O)cc1 | 94.8
42 | CN1CCN2c3ncccc3Cc3ccccc3[C@@H]2C1 | 96.2
43 | CCOC(=O)c1cnc2ccccc2c1Nc1ccc(N2CCOCC2)cc1 | 86.4
44 | Oc1ccccc1-c1noc(-c2ccccc2O)n1 | 89.6
45 | CCCCNS(=O)(=O)c1ccc(OCC(N)=O)cc1 | 94.9
46 | Cc1cc(=O)oc2cc(OC(C)C(=O)Nc3nnc(C4CCCO4)s3)ccc12 (stereo not given) | 103.8
47 | CC1CCc2c(sc(NC(=O)CN3C(=O)CCC3=O)c2C(N)=O)C1 (stereo not given) | 97.5
48 | O=C(OCc1ccccc1)c1ccc(O)cc1 | 96.5
49 | N#CCn1ccn(-c2cccc3ccccc23)c(=O)c1=O | 97.9
50 | CC1CCN(S(=O)(=O)c2cccc(C(=O)N3CCN(c4ccc(F)cc4)CC3)c2)CC1 | 95.5

Taken from the listing for reference:
entry | smiles | RVFV N-RNA inh
46 | Cc1cc(=O)oc2cc(OC(C)C(=O)Nc3nnc(C4CCCO4)s3)ccc12 (stereo not given) | 103.8
47 | CC1CCc2c(sc(NC(=O)CN3C(=O)CCC3=O)c2C(N)=O)C1 (stereo not given) | 97.5
48 | O=C(OCc1ccccc1)c1ccc(O)cc1 | 96.5
49 | N#CCn1ccn(-c2cccc3ccccc23)c(=O)c1=O | 97.9
50 | CC1CCN(S(=O)(=O)c2cccc(C(=O)N3CCN(c4ccc(F)cc4)CC3)c2)CC1 | 95.5

(list continues)
entry | smiles | RVFV N-RNA inh
51 | COc1cccc(S(=O)(=O)Nc2ccc(C(=O)N3CCN(C(=O)c4ccco4)CC3)cc2)c1 | 99.2
52 | Nc1nnnn1/N=C/c1ccccc1O | 94.8
53 | Cn1c(NC(=O)C2CC2)cc(=O)n(C)c1=O | 96.7
54 | O=c1[nH]nc2n1-c1ccccc1SC2 | 91.0
55 | O=C(NCCc1ccccc1)c1ncn[nH]1 | 91.7
56 | CC(NC(=S)Nc1ccc(S(N)(=O)=O)cc1)c1ccc2c(c1)OCO2 (stereo not given) | 92.5
57 | COc1cccc(C(=O)NC(C)(C)C)c1OC | 111.2
58 | Cc1ccc(C)c(NC(=S)N(C)C)c1 | 94.8
59 | Oc1ccc(N=Cc2ccco2)cc1 | 96.0
60 | CCCN(CCC)S(=O)(=O)c1ccc(C(=O)Nc2ccc3c(c2)OCO3)cc1 | 103.6
61 | C#CCn1c(=NC(=O)C(C)(C)C)sc2cccc(OCC)c21 | 103.5
62 | CCC(C(=O)Nc1cccc(C(=O)O)c1)c1ccccc1 (stereo not given) | 100.8
63 | O=S(=O)(c1cc(O)cc(S(=O)(=O)C(F)(F)F)c1)C(F)(F)F | 93.8
64 | CN(C(=O)Nc1cn(C)c2ccccc12)C1CCCCC1 | 95.1
65 | Cc1ccc(S(=O)(=O)N(CCc2cccs2)CC(=O)O)cc1 | 97.7
66 | Cc1cccc(NC(=S)Nc2ccc(N(C)C)cc2)c1 | 93.5
67 | CC1(C)C/C(=N/O)c2cc3c(nc2C1)CC(C)(C)C/C3=N\O | 96.9
68 | O=C(c1ccc(=O)[nH]n1)N1CCN(Cc2ccccc2)CC1 | 92.1
69 | CCC(=O)Nc1nnc(COc2ccc(OC)cc2)s1 | 98.4
70 | Cc1ccc(NC(=O)CSC2CCCC2)c(C)c1 | 93.2
71 | CC(C)(C)n1cccc1C=C1C(=O)NC(=O)NC1=O | 94.5
72 | CNCC[C@H](Oc1ccc(C(F)(F)F)cc1)c1ccccc1 | 93.8
73 | N#C/C(=C\N1CCN(Cc2ccccc2)CC1)S(=O)(=O)c1ccccn1 | 96.9
74 | O=C(Oc1ccc2c(c1)OCC2=O)c1ccc(Cl)cc1 | 95.7
75 | O=C(O)c1c[nH]c(=O)n(-c2ccccc2F)c1=O | 101.9
76 | N#CCc1ccc(NC(=O)CSCc2ccccc2)cc1 | 92.6
77 | Cc1ccc(NC(=S)NC2CCS(=O)(=O)C2)cc1 (stereo not given) | 94.6
78 | CN1C(=O)/C(=C/c2ccccc2)NC1=S | 100.5
79 | CN(CC1CCCO1)S(=O)(=O)c1ccc(C(=O)Nc2nnc(-c3ccccc3)o2)cc1 (stereo not given) | 99.1
80 | COc1ccc(S(N)(=O)=O)cc1C | 93.0
81 | Nc1c(C(=O)N/N=C/c2ccc3c(c2)OCO3)cnn1-c1ccccc1 | 95.6
82 | NNC(=O)c1cc2cc(OC(F)(F)F)ccc2[nH]1 | 99.6
83 | COc1cc(/C=C(\C#N)C(=O)OC(C)(C)C)cc(OC)c1 | 92.6
84 | N[C@H]1C[C@@H]1c1ccccc1 | 99.6
85 | O=C(/C=C/c1ccccc1)Nc1nnc(-c2ccc3c(c2)CCCC3)o1 | 93.5
86 | COc1ccc(S(=O)(=O)n2nnc3ccccc32)cc1C(C)(C)C | 107.2
87 | COc1ccc(-c2cc3ncc(C)n3c(Nc3ncccc3C(N)=O)n2)cc1OC | 92.2
88 | CN(C)C=Nc1ccc(S(=O)(=O)N(C)c2nccs2)cc1 | 99.1
89 | COc1ccc(C=NN2CCN(Cc3ccccc3)CC2)c(OC)c1OC | 102.4
90 | CCOC(=O)c1cc(NC(=O)c2ccoc2C)cc(C(=O)OCC)c1 | 109.8
91 | COc1ccc(C2CC(=O)Nc3ccccc3S2(=O)=O)cc1OC (stereo not given) | 98.5
92 | CCn1c(C(C)Oc2ccc(Cl)cc2)n[nH]c1=S (stereo not given) | 85.7
93 | CNC(=O)COc1coc(CN2CCc3ccccc32)cc1=O | 97.0
94 | N#Cc1ccccc1NC(=O)CCCc1ccccc1 | 93.3
95 | O=C1OCCC1Sc1ccc(Cl)cc1 (stereo not given) | 100.4
96 | COc1ccc(NC(=O)C2CC2)cc1OC | 88.9
97 | Cc1cnc(=O)[nH]c1SCc1cccc2ccccc12 | 107.3
98 | CCN1CCN(C(=O)c2ccccc2SC)CC1 | 97.3
99 | COc1cc(OC)cc(C(=O)NC(=S)Nc2cccc(-c3nc4ccccc4o3)c2C)c1 | 94.2
100 | COC(=O)C1=C(C)NC(C)=C(C(=O)OC)C1c1cccc(NC(=O)NCCCN2CCC(c3cccc(OC)c3)CC2)c1 | 97.1

(continued)
entry | smiles | RVFV N-RNA inh
101 | CC(C)(C)S(=O)(=O)c1ccsc1S(C)(=O)=O | 98.4
102 | Clc1ccc(CN2CCN(Cc3ccccc3)CC2)cc1 | 100.1
103 | S=C(Nc1ccc(Cl)cc1)N1CCN(C2CCCCC2)CC1 | 85.3
104 | Cc1ccnc(S/C=C/C(=O)c2ccc(I)cc2)n1 | 84.5
105 | CN1CCC(NC2C3CC4CC(C3)CC2C4)CC1 (stereo not given) | 94.1
106 | N#CCSc1nc(-c2cccnc2)ccc1C(=O)O | 98.8
107 | COc1cccc(NC(=O)C=C(C)C)c1 | 96.4
108 | C=CCn1c(Cc2cccs2)nnc1SCc1c(Cl)cccc1Cl | 96.6
109 | CCN(CC)CCNC(=O)c1ccc(NC(C)=O)cc1 | 105.8
110 | c1ccc(Cn2ccnc2)cc1 | 95.7
111 | c1ccc2c(c1)NC(c1ccc3nsnc3c1)c1cccn1-2 (stereo not given) | 103.8
112 | COc1cccc(OC)c1C(=O)Nc1ccc2c(c1)CCCN2C(=O)C1CC1 | 93.7
113 | NC(=O)NC(=O)CC1Sc2ccccc2NC1=O (stereo not given) | 98.6
114 | CCOC(=O)c1sc(NC(=O)C=C(C)C)c(C#N)c1C | 90.8
115 | Cc1ccc(NC(=O)c2oc3ccccc3c2NC(=O)C2CC2)cc1C | 98.3
116 | C=CCN(CC=C)C(=O)C(C)Oc1ccc(Cl)cc1Cl (stereo not given) | 95.3
117 | Cc1ccc(N2C(=O)CC(C3=C(N4CCOCC4)CCCC3)C2=O)cc1 (stereo not given) | 95.4
118 | COc1cccc(CNc2ccc3c(c2)ncn3C)c1 | 107.3
119 | CS(=O)(=O)n1nc(OC(=O)c2cc(Br)ccc2Cl)cc1N | 87.2
120 | C=CCOC(=O)c1c2nc3ccccc3nc2n2c1[nH]c(=O)c1ccc(C(=O)OC)cc12 | 93.9
121 | O=c1c2cn[nH]c2[nH]c(=S)n1-c1cccc(C(F)(F)F)c1 | 85.7
122 | CCOC(=O)c1c(C)noc1-c1ccc(Br)o1 | 101.9
123 | COC1(NC(=O)c2ccc(C)cc2)C(C)=CC(=O)C=C1C | 96.9
124 | COc1cc(C(=O)O)cc(Br)c1OC | 94.9
125 | COc1ccc(CC(=O)N(C)c2ccccc2)cc1 | 99.4
126 | CC1CCN(Cc2c(F)cccc2F)CC1 | 98.9
127 | COc1ccc2c(c1OC)C(=O)O[C@@H]2[C@H]1c2c(cc3c(c2OC)OCO3)CCN1C | 96.0
128 | CC(C)c1ccc2c(c1)c(SC(C)(C)C)c(CC(C)(C)C(=O)O)n2Cc1ccc(Cl)cc1 | 94.2&92.5
129 | CCN1C(=O)C(=Cc2ccc(O)c(I)c2)C(=O)N(CC)C1=S | 94.3
130 | Cn1cnnc1SCC(=O)N(c1ccccc1)c1ccccc1 | 95.9
131 | O=C(N(c1ccccc1)c1ccccc1)n1cncn1 | 96.4
132 | Cc1ccc(S(=O)(=O)N2CCN(c3nc(-c4ccccc4)ns3)CC2)cc1 | 95.1
133 | C=CCn1c(=O)n2ncnc2c2c3c(sc21)CCCC3 | 96.5
134 | CC(C)S(=O)(=O)c1cnc(-c2cnccn2)nc1N | 90.4
135 | CN(C)C(=O)NCc1ccc(S(N)(=O)=O)cc1 | 97.4
136 | Cc1oc(=O)oc1CN1CCN(c2cc3c(cc2F)c(=O)c(C(=O)O)c2n3C(C)C2)CC1 (stereo not given) | 107.2
137 | COc1ccc(-n2ncc(NC(=O)NCc3cccs3)c2C)cc1 | 98.4
138 | O=C(Cn1c(NCCO)nc2ccccc21)c1ccccc1 | 94.9
139 | CN(C)c1ccc(/C=N/N2C(=O)C3C4C=CC(C4)C3C2=O)o1 (stereo not given) | 84.2
140 | Cc1c(/C=N/NC(=O)c2cncc(Br)c2)c2ccccc2n1C | 87.2
141 | CCC(C)c1ccccc1OCCCCN1CCN(C)CC1 (stereo not given) | 95.0
142 | C[N+](C)(C)CCO | 92.6
143 | O=C(O)COc1c(-c2ccccc2)oc2ccccc2c1=O | 92.9
144 | COc1cccc(N2CC(=O)N(/N=C/c3ccc(Cl)cc3)CC2=O)c1 | 94.5
145 | COC(=O)C1(C(O)c2ccc(Cl)cc2)CCCCC1 (stereo not given) | 97.8
146 | Cc1ccc(NC(=O)NC2CC(C)(C)NC(C)(C)C2)cc1 | 99.2
147 | CC(C)C(=O)Nc1ccc2c(c1)C(=O)NC2=O | 88.9
148 | CC(C)(C)C(=O)Nc1ccc(C(=O)Oc2ccccc2)c(O)c1 | 93.8
149 | NC(CCC(F)(F)F)C(=O)O (stereo not given) | 81.6
150 | CCCCc1oc2ccccc2c1C(=O)c1cc(I)c(OCCN(CC)CC)c(I)c1 | 98.1&98.0&91.2
